From PubChem
Arbovirus anti: antivirals against arbovirus infection, primary screen, cell-based, full library, 10K replicate subset; arbovirus infection cell-based antiviral screen; hit rate 0.37% among 200,000; inhibition, % at 10 µM; AID 1251, 2008;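 active = inhibition from about 30%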;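 note: bluetongue infection of BSR cells; cell survival read as ATP light after 72 h; 0% = infected wells without compound and 100% = uninfected wells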
Mtb H37Rv: M. tuberculosis H37Rv growth inhibitors, H37Rv strain (AID 1626) | inhibition, % at 10 µM; hits with a dose series show IC50 in µM | M. tuberculosis H37Rv growth inhibition; higher % means a stronger effect | hit rate 0.95% among 220,000;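 active = confirmed in a dose series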;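 note: bacteria incubated seven days before Alamar blue readout; 0% = bacteria only wells and 100% = bacteria with antibiotic wells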
YopH PTP inh: YopH tyrosine phosphatase inhibitors, primary screen, biochemical, fluorescence Ex485/Em525. YopH tyrosine phosphatase [Yersinia enterocolitica]. inhibition, %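 (about 10 µM by stock and volumes)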. hit rate 0.16% among 140,000. AID 898, 2007;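 active = inhibition of 50% or more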;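 note: controls were vehicle for no effect and minimum signal wells for full effect; inactives centre near -20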
Arbovirus anti repeat: further read-out of Arbovirus anti, marked with its call; inhibition, %; measured here: 10K subset replicate screen; many hits read low in the repeat;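 first of two repeat runs on a subset; 0% = infected and 100% = uninfected wells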
* hit, by the source's call; nt = no result given. Only part of the results is shown; the hit share may differ from the screen's.

SMILES | Arbovirus anti | Mtb H37Rv | YopH PTP inh | others
CCOC(=O)N1CCN(C(=O)C2CCC(C(=O)N3CCN(C(=O)OCC)CC3)CC2)CC1 (centres undefined) | nt | nt | 2.6
COc1ccc(-c2c3c(=O)n(C)c(=O)n(C)c3c3nnc4ccccc4n23)cc1 | nt | nt | 14.5
CC(C)Oc1ccc(C2C(C(=O)c3ccco3)=C(O)C(=O)N2CCCN(C)C)cc1 (centres undefined) | nt | nt | 3.2
CC1CCN(C(=O)c2ccc(C(=O)N3CCC(C)CC3)cc2)CC1 | nt | nt | -24.6
O=C1NC2CCCCC2NC1CC(=O)N1CCN(c2ccccc2)CC1 (centres undefined) | nt | nt | -4.2
O=c1c2c3c(sc2n2c(=S)[nH]nc2n1Cc1ccccc1)CN(Cc1ccccc1)CC3 | nt | nt | -7.0
Cc1[nH]n(-c2ccc([N+](=O)[O-])cc2)c(=O)c1N=Nc1nc2ccccc2s1 | nt | nt | 0.6
c1ccc(CC2CCN(c3nc(N4CCOCC4)nc(N4CCOCC4)n3)CC2)cc1 | nt | nt | 1.6
c1cc2c3c(cccc3c1)C(N1CCN(C3=Nc4cccc5cccc3c45)CC1)=N2 | nt | nt | -24.1
COc1ccc(OC)c(NC(=O)c2cnc3ccccn3c2=O)c1 | nt | nt | 2.8
O=C1c2ccccc2-c2nc3ncnn3c(-c3ccccc3)c21 | nt | nt | -12.2
CCCCCCCc1nc2c(=O)[nH]c3ccccc3c2o1 | nt | nt | -20.4
COc1ccc(/C=C2\CCc3ccccc3C2=O)cc1Cn1nc(C)c(Br)c1C | nt | nt | 16.0
CCOc1cc(-n2cnnn2)c(OCC)cc1NC(=O)c1cc2ccc(N(CC)CC)cc2oc1=O | nt | nt | -18.6
O=[N+]([O-])c1ccc(-c2nnc(CSc3nc(-c4ccccc4)nc4ccc(F)cc34)o2)cc1 | nt | nt | -2.6
O=C(CSc1ncnc2c1nnn2-c1ccc(F)cc1)N1CCN(c2ccccc2)CC1 | nt | nt | -40.5
COCCn1c(SCc2nnc(-c3ccc(OC)c(OC)c3)o2)nc2sc3c(c2c1=O)CCC3 | nt | nt | -23.8
Cc1nc(N2CCN(c3ncccn3)CC2)c2oc3ccccc3c2n1 | nt | nt | -0.1
Cc1cc(C)c2c(n1)nn1c(N3CCN(c4cccc(Cl)c4)CC3)cc(C)nc21 | nt | nt | -17.0
CCCn1c(C)nc2c(c1=O)c1nc3ccccc3nc1n2CCc1ccccc1 | nt | nt | 5.1
Cc1cc(C)c2c(n1)sc1c(N3CCOCC3)ncnc12 | nt | nt | -12.1
COc1ccc(C(c2nnnn2C2CCCCC2)N2CCN(c3ccccc3)CC2)cc1 (centres undefined) | nt | nt | -23.8
c1ccc(CN2CCN(c3ncccn3)CC2)nc1 | nt | nt | -18.9
Cc1ccnc(N2CCN(c3c4c(c(C#N)c5nc6ccccc6n35)CCC4)CC2)c1 | nt | nt | -8.0
COc1ccc2c3c(cccc13)NN=C2C | nt | nt | -16.0
COc1ccc2c(C)nc(Nc3nc(C)cc(=O)[nH]3)nc2c1 | nt | nt | -25.2
COc1cc(C2c3c(oc4c(C)cc(C)cc4c3=O)C(=O)N2Cc2cccnc2)cc(OC)c1OC (centres undefined) | nt | nt | -19.2
CC1CCc2c(sc3ncnc(N4CCN(S(=O)(=O)c5cccc6nonc56)CC4)c23)C1 (centres undefined) | nt | nt | -11.3
O=S(=O)(c1ccc(F)cc1)N1CCC(N2CCN(c3ccccc3)CC2)CC1 | nt | nt | -3.9
O=C1CC(N2CCC(c3nc4ccccc4o3)CC2)C(=O)N1c1ccc(Cl)cc1 (centres undefined) | nt | nt | -43.2
Cc1cc(=O)[nH]c(/N=C(/NC(=O)c2ccccc2)Nc2ccc3c(c2)OCCO3)n1 | nt | nt | -15.9
O=C(CN1C(=O)c2ccccc2C1=O)OCN1C(=O)c2ccccc2C1=O | nt | nt | -25.1
CC1(C)Cc2ccccc2-c2c1c(=O)n(-c1ccccc1)c1nnnn21 | nt | nt | -19.1
Cc1nnc(SCc2cc(=O)[nH]c(Nc3nc(C)c4ccccc4n3)n2)s1 | nt | nt | -15.2
CCOc1ccc2cc(C#N)c(SCC(=O)N3CCCC3)nc2c1 | nt | nt | -60.6
CNC(=O)CN(C#N)c1nc(N(C)C)nc(N(C)C)n1 | nt | nt | 34.0
Cc1ccc(-n2nnc3c(SCC(=O)N4CCN(c5ccccc5)CC4)ncnc32)cc1 | nt | nt | -32.4
COc1ccc(-c2onc3ccc(Cl)cc23)cc1OC | nt | nt | -74.8
CC(C)C1Cc2c(sc3c2c(=O)n(-c2ccccc2)c2nncn32)CO1 (centres undefined) | nt | nt | -7.8
Cc1ccnc(SCCn2c(N3CCOCC3)nc3c2c(=O)n(C)c(=O)n3C)n1 | nt | nt | -14.5
CC1=NC(=O)C(N=Nc2cccc3ccccc23)N1c1ccccc1 (centres undefined) | nt | nt | 26.0
Cc1nn(-c2ccccc2)c(Cl)c1/C=C1\N=C(c2ccccc2)OC1=O | nt | nt | -30.7
Cc1cccc2cc(CN(Cc3ccccc3)C(=O)N3CCOCC3)c3nnnn3c12 | nt | nt | -7.7
O=c1sc2ccccc2n1COc1ccccc1 | nt | nt | -43.8
CCN1C(=O)/C(=C2/Sc3ccc(OC)cc3N2C)SC1=Nc1ccc(C)cc1 | nt | nt | -17.5

Reprinted from above, 6 compounds:
SMILES | Arbovirus anti | Mtb H37Rv | YopH PTP inh | others
Cc1cc(=O)[nH]c(/N=C(/NC(=O)c2ccccc2)Nc2ccc3c(c2)OCCO3)n1 | nt | nt | -15.9
O=C(CN1C(=O)c2ccccc2C1=O)OCN1C(=O)c2ccccc2C1=O | nt | nt | -25.1
CC1(C)Cc2ccccc2-c2c1c(=O)n(-c1ccccc1)c1nnnn21 | nt | nt | -19.1
Cc1nnc(SCc2cc(=O)[nH]c(Nc3nc(C)c4ccccc4n3)n2)s1 | nt | nt | -15.2
CCOc1ccc2cc(C#N)c(SCC(=O)N3CCCC3)nc2c1 | nt | nt | -60.6
CNC(=O)CN(C#N)c1nc(N(C)C)nc(N(C)C)n1 | nt | nt | 34.0

Carrying on.
SMILES | Arbovirus anti | Mtb H37Rv | YopH PTP inh | others
CC(C(=O)NCc1ccccc1)N(CCN1CCOCC1)C(=O)c1snc(C(N)=O)c1N (centres undefined) | nt | nt | -43.1
COCCn1c(C)cc(C(=O)CSc2nnc3scc(-c4ccc(Cl)cc4)n23)c1C | nt | nt | 10.2
CC(C)CCn1c(N2CCN(Cc3ccccc3)CC2)nc2c1c(=O)[nH]c(=O)n2C | nt | nt | -8.5
COCCNC(=O)C(c1ccc(C)cc1)N(C(=O)CCC(=O)Nc1ccccn1)C1CCCC1 (centres undefined) | nt | nt | -13.5
Cc1cc(C)nc(NC2=NCCN2C(=O)Nc2ccc(Cl)c(Cl)c2)n1 | nt | nt | -20.9
O=C1c2ccccc2C(=O)N1Cc1nc(-c2cccnc2)no1 | nt | nt | -34.9
Cc1nnc(N2CCN(C)CC2)c2nn(-c3ccc(Cl)cc3)c(C)c12 | nt | nt | 12.5
Cc1ccc(-n2nc3c(N4CCN(c5ccccc5)CC4)nnc(C)c3c2C)cc1 | nt | nt | -17.4
COc1ccc(-n2c(=O)c3c4c(sc3n3c(C)nnc23)CCCC4)cc1 | nt | nt | -27.7
Cn1cc(C2NC(=O)c3c(sc4c3CCCC4)N2)c2ccccc21 (centres undefined) | -4.4 | nt | nt | Arbovirus anti repeat=-3.7
COc1ccc(N2CCN(Cc3nc4c(c(=O)n(C)c(=O)n4C)n3Cc3ccccc3C)CC2)cc1 | -4.2 | nt | nt | Arbovirus anti repeat=-3.7
CC1CC(C(O)c2ccccn2)C(=O)C(C(O)c2ccccn2)C1 (centres undefined) | 3.5 | nt | nt | Arbovirus anti repeat=-0.4
CC(C)Oc1ccc(/C(O)=C2/C(=O)C(=O)N(CCCN3CCOCC3)C2c2ccncc2)cc1 (centres undefined) | -1.1 | nt | nt | Arbovirus anti repeat=5.6
Cc1cc(C)cc(-n2cc3c(=O)n(C)c(=O)n(C)c3c2)c1 | 2.6 | nt | nt | Arbovirus anti repeat=-1.1
Cc1cc(Cl)ccc1N=Cc1c(O)n(C)c(=O)n(C)c1=O | 2.3 | nt | nt
Cc1nn(-c2ccc(Cl)cc2)c2sc(C(=O)N3CCN(C(=O)c4ccco4)CC3)cc12 | 4.4 | nt | nt | Arbovirus anti repeat=-6.0
CCOc1ccc2nc(Nc3nc4c(c(=O)[nH]3)CCC4)nc(C)c2c1 | -4.8 | nt | nt | Arbovirus anti repeat=-6.8
CCc1ccc2nc(NC3=NCN(CCOC)CN3)nc(C)c2c1 | -6.9 | nt | nt | Arbovirus anti repeat=-0.7
CCN1CCN(Cc2nc3c(c(=O)n(C)c(=O)n3C)n2CCCc2ccccc2)CC1 | 2.3 | nt | nt | Arbovirus anti repeat=-2.1
Cc1cc(C)n2nc(CCc3nc4nc(C)cc(C)n4n3)nc2n1 | 0.9 | nt | nt | Arbovirus anti repeat=4.9
Cc1nc(N2CCN(c3ccccc3)CC2)c2c3c(sc2n1)CCC3 | 8.4 | nt | nt | Arbovirus anti repeat=0.9
Cc1ccc2oc(=O)c3cc(C(=O)N4CCN(c5ncccn5)CC4)sc3c2c1 | 1.7 | nt | nt | Arbovirus anti repeat=1.1
Brc1ccc2c(c1)c1nc3ccccc3nc1n2CCN1CCOCC1 | 1.2 | nt | nt | Arbovirus anti repeat=0.5
Cn1c(=O)c2c(nc(SCc3cc4c(cc3Cl)OCO4)n2C)n(C)c1=O | 5.4 | nt | nt | Arbovirus anti repeat=-0.1
CCOC(=O)c1c(NC(=O)c2cc(C3CC3)on2)sc(C(C)=O)c1C | -5.4 | nt | nt | Arbovirus anti repeat=7.0
Cc1nnc(Sc2nc3c(c(=O)[nH]c(=O)n3C)n2Cc2ccccc2Cl)s1 | 15.8 | nt | nt | Arbovirus anti repeat=-0.2
Cc1cccn2c(=O)c(C=NCc3ccco3)c(Nc3ccc(Cl)cc3)nc12 | 11.8 | nt | nt | Arbovirus anti repeat=6.6
CCn1c2ccccc2c2nnc(SCc3cc(=O)n4ccsc4n3)nc21 | 13.7 | nt | nt | Arbovirus anti repeat=-0.1
Cn1c(SCCSc2nnc(-c3ccccc3)n2C)nnc1-c1ccccc1 | -0.1 | nt | nt | Arbovirus anti repeat=1.5
C=CCn1c(=O)c(C(=O)Nc2ccccc2OC)c(O)c2ccccc21 | 4.7 | nt | nt | Arbovirus anti repeat=-6.0

3 structures out of the list, ordered by number of heavy atoms, rising:
SMILES | Arbovirus anti | Mtb H37Rv | YopH PTP inh | others
Cc1[nH]n(-c2ccc([N+](=O)[O-])cc2)c(=O)c1N=Nc1nc2ccccc2s1 | nt | nt | 0.6
Cc1ccc2oc(=O)c3cc(C(=O)N4CCN(c5ncccn5)CC4)sc3c2c1 | 1.7 | nt | nt | Arbovirus anti repeat=1.1
CC(C)CCn1c(N2CCN(Cc3ccccc3)CC2)nc2c1c(=O)[nH]c(=O)n2C | nt | nt | -8.5

Next part
SMILES | Arbovirus anti | Mtb H37Rv | YopH PTP inh | others
CN1CCN(c2ncnc3c2sc2nc(N4CCCC4)c4c(c23)CC(C)(C)OC4)CC1 | 4.7 | nt | nt | Arbovirus anti repeat=5.1
Cn1c(=O)c2c(nc(SCCOc3ccc4ccc(=O)oc4c3)n2C)n(C)c1=O | 3.1 | nt | nt | Arbovirus anti repeat=5.0
Cc1cc2ccccn2c1C(=O)c1ccc(N/N=C/c2ccc(C(=O)O)cc2)c([N+](=O)[O-])c1 | nt | 0.8% | nt
O=[N+]([O-])c1ccc2c(c1)N([O-])C1(CCCCC1)[N+]2=O | nt | -1.0% | nt
CCC(=O)NS(=O)(=O)c1ccc(-c2c(-c3ccccc3)noc2C)cc1 | nt | -15.8% | nt
COc1ccc2[nH]c3c4c(ccc3c2c1)C(=O)C=CC4=O | nt | 9.9% | nt
O=C(O)c1cccc(N2C(=O)CCC2=O)c1 | nt | -11.8% | nt
CN1C(=CC=C2C=C(I)C(=O)C(I)=C2)C(C)(C)c2ccccc21 | nt | 5.4% | nt
COc1ccc(C2CN=NC2C(=O)c2ccccc2)cc1 (centres undefined) | nt | 0.4% | nt
Cc1ccc(CN2C(=O)N/C(=C\c3ccc(-c4ccc(C(=O)O)cc4C)o3)C2=O)cc1 | nt | -0.7% | nt
CN1CCN(C(=O)/C(C#N)=C/c2ccc(OC(F)F)cc2)CC1 | nt | 1.4% | nt
COc1ccccc1C(=O)NN1C(=O)/C(=C/c2cccn2C)SC1=S | nt | 4.2% | nt
CCCCCCN(C(=O)CCCCCN1C(=O)NC(c2ccccc2)C(C(=O)OCc2ccccc2)=C1C)C(C(=O)NCCCC)c1ccc(OCC(=O)OC)c(C(=O)OC)c1 (centres undefined) | nt | 15.6% | nt
COc1ccc2c(Cl)c(C(=O)OCC(=O)c3ccc4c(c3)NC(=O)CO4)sc2c1Cl | nt | 4.6% | nt
CN1CC[C@@H](c2ccc(F)cc2)[C@H](COc2ccc3c(c2)OCO3)C1 | nt | -6.4% | nt
Cc1ccc2c(c1)c1ccc3c(c1n2C)C(=O)C=CC3=O | nt | 38.0% | nt
O=C(CSc1n[nH]c(=O)n1C1CC1)c1ccc2c(c1)OCCO2 | nt | 45.1% | nt

Entries from the list above that contain a COOH group (three):
SMILES | Arbovirus anti | Mtb H37Rv | YopH PTP inh | others
Cc1cc2ccccn2c1C(=O)c1ccc(N/N=C/c2ccc(C(=O)O)cc2)c([N+](=O)[O-])c1 | nt | 0.8% | nt
O=C(O)c1cccc(N2C(=O)CCC2=O)c1 | nt | -11.8% | nt
Cc1ccc(CN2C(=O)N/C(=C\c3ccc(-c4ccc(C(=O)O)cc4C)o3)C2=O)cc1 | nt | -0.7% | nt
